AmpC inh no det: AmpC beta-lactamase inhibition, detergent-free assay | P00811 | AmpC nitrocefin hydrolysis, absorbance 480 nm, no detergent; potencies from a single point are estimates | Potency, µM (titrated, usually from 28.7 µM), inactives show top-dose activity change, negative = inhibition | 71,000 compounds, 1.8% hits | AID 585; active = falling curve, for most hits resting on a single point; inconclusive = weak or doubtful change; inactive = flat or rising curve; also: % of control where 0% means no effect; about half of the hits show no inhibition at the top dose; a quarter of the inactives give rising signals
Target sequence (P00811 whole entry, looked up): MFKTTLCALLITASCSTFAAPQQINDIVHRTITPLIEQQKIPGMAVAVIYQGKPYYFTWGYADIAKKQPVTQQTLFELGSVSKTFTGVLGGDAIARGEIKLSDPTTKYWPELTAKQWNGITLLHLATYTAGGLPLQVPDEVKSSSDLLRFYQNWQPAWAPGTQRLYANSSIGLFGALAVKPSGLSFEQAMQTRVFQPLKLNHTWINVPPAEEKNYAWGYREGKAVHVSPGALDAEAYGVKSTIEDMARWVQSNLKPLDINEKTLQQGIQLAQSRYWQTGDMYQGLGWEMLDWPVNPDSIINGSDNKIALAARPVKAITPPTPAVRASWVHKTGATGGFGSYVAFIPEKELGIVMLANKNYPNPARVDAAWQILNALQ
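AmpC in 20 mM phosphate buffer pH 7.0 was preincubated 15 min at room temperature with compounds. Nitrocefin (800 uM stock) was then added and hydrolysis followed at 480 nm every 20 s for 4 min.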
Active calls of the source: *; ? = inconclusive; [ ] = another dose, or the depositor's remark. Potency is read from the fitted curve at half-maximal effect. This is a subset. The share of hits here may be higher or lower than overall.

compound,AmpC inh no det
CC(C)=C[C@H]1[C@@H](COC(=O)c2ccccc2Cl)C1(C)C,1.4%[5.75 µM]
CN(C)C(=O)Nc1cccc(OC(=O)N(C)C)c1,-16.1%
Oc1cccc(Cl)c1,1.5%
COCCn1c(C23CC4CC(CC(C4)C2)C3)n[nH]c1=S,8.8%
Cc1noc(C)c1S(=O)(=O)NCCCN1CCN(Cc2ccccc2)CC1,-0.1%
Cc1ccnc(NC(=O)CCC(=O)N(CC(=O)NCCc2ccccc2)Cc2ccco2)c1,56.3%
O=C(NCc1ccco1)c1ccc2c(=O)n(CCC3=CCCCC3)c(=O)[nH]c2c1,?
Cc1cc(Oc2ccccc2)nc(OCC#N)n1,-4.8%
CCOC(=O)Nc1sc(NS(=O)(=O)c2ccccc2)nc1C,2.5%
CC1CN=C(NCc2ccncc2)S1 (centres undefined),-3.7%
CCCCNc1nc2ccccc2n1CC(=O)N1CCc2ccccc2C1,21.6%
O=C1c2ccccc2NC(c2ccccn2)N1c1ccc(Cl)cc1 (centres undefined),-8.8%
CCCCCn1c(N(C)Cc2ccccc2)nc2c1c(=O)[nH]c(=O)n2C,44.6%
Oc1cccc2ccc(SSc3ccc4cccc(O)c4n3)nc12,-29.9%[5.75 µM]
CC(C)(C)NC(=O)CN(C(=O)CS(=O)CC(=O)Nc1ccc(F)cc1)c1ccc(Cl)cc1 (centres undefined),125.2%
CC1(C)CC(=O)C2=C(C1)N=C1SCCC(=O)N1C2c1ccccc1 (centres undefined),16.5%
O=C(Cn1nnc(-c2cc(Cl)ccc2-n2cnnn2)n1)N1CCCc2ccccc21,40.5%
COC(=O)C1=C(C)Nc2c(c(=O)n(C)c(=O)n2C)C1c1cccs1 (centres undefined),0.5%
O=C(CSc1nc2c(c(=O)n1-c1ccccc1)SCC2)N1CCOCC1,-1.8%
COC(=O)c1ccccc1NC(=O)c1cc(-c2cccc(OC)c2)on1,-24.3%
CCCCOC(=O)Cc1c(O)c2ccccc2[nH]c1=O,1.0%
CC(=O)c1ccc(N2CCN(C(=O)c3cc(-c4ccc5c(c4)OCO5)nc4ccccc34)CC2)cc1,42.3%
c1ccc(OCC2CO2)cc1 (centres undefined),-19.0%
Cc1cccc(NC(=O)C2CCN(c3nc(C)cc(C)n3)CC2)c1,2.2%
O=C(CC1(O)C(=O)Nc2ccccc21)c1cccnc1 (centres undefined),-4.1%
COC(=O)c1ccc(COc2ccc3c4c(c(=O)oc3c2)CCC4)o1,13.3%
CN(C)S(=O)(=O)c1cccc(-c2cn3ccccc3n2)c1,-4.5%
COc1ccc(-n2c(O)c(C(C)=NC3CC3)c(=O)[nH]c2=O)cc1,-14.8%
C=CCOC(=O)COCCC(C)C,-14.9%
CC(=O)c1cc2c(O)c(O)ccc2o1,4.9%
Cc1cc(C)c(S(=O)(=O)Nc2ccc[nH]c2=O)c(C)c1,-10.7%
CCC(Sc1nc2ccccc2c(=O)n1CCN1CCOCC1)C(=O)NCc1cccnc1 (centres undefined),20.3%
Cc1cc2c(nn1)CCc1nonc1-2,-1.8%
Nc1c(C(=O)OCC2CCCO2)c2nc3ccccc3nc2n1C1CCCC1 (centres undefined),77.2%
O=C(CSc1nnc(-c2ccco2)o1)NC(=O)C1COc2ccccc2O1 (centres undefined),-23.1%
CSCCC(N=CC1=C(O)CC(C)(C)CC1=O)C(=O)O (centres undefined),-4.0%
COc1ccc(-n2c(Cc3cc(=O)[nH]c(=O)[nH]3)nnc2SCC(=O)N2CCC(C)CC2)cc1,3.98µM*[single pt active]
COc1ccc(-n2nc3cc(C)c(NC(=O)c4cccnc4)cc3n2)cc1,51.7%
Nc1cc(Cl)c([N+](=O)[O-])cc1O,-4.3%
CC(=O)c1ccc(NC(=O)C2CCCN2S(=O)(=O)c2ccc(F)cc2)cc1 (centres undefined),13.6%
COc1ccc(N2C(=O)c3ccc(NC(C)=O)cc3C2=O)cc1,22.3%
Nn1c(CSc2ccccn2)nc2ccccc2c1=O,-6.3%
Cc1cccc(Cc2c(C)nc3nc(SCC(=O)NCc4ccco4)nn3c2C)c1,53.6%
CCCOc1cccc(C(=O)N(Cc2cccs2)C2CCS(=O)(=O)C2)c1 (centres undefined),53.4%
CCOC(=O)N1CCC(NC(=O)c2cnn3ccccc23)CC1,3.98µM*[single pt active]
CCOC(=O)C1CCCN(C(=O)c2cn(C)c(=O)c3cc(OC)c(OC)cc23)C1 (centres undefined),11.0%
COc1ccc(OC)c(NC(=O)CS(=O)(=O)c2ccccc2)c1,-2.2%
O=C(OCC(=O)c1cccs1)c1ccc(NC(=O)c2ccco2)cc1,15.8µM*[single pt active]
O=C(NCc1ccc2c(c1)OCO2)C1CC(=O)N(CCc2ccccc2)C1 (centres undefined),57.8%
COc1ccc2c(OC)c3ccoc3nc2c1OC,10.3%

Continuation:
compound,AmpC inh no det
CCOC(=O)c1c(C)oc2cc(Br)c(OC)cc12,-1.0%
O=C1C(=O)c2ccccc2C(O)=C1C(CCc1ccccc1)C1=C(O)c2ccccc2C(=O)C1=O,-5.7%[5.75 µM]
Cc1nnc(SCC(=O)Nc2ncc(Cc3ccc(F)cc3)s2)n1N,22.8%
COc1ccc(Nc2nc(N)nc(CN3CCc4ccccc4C3)n2)cc1,17.7%
COc1cc(CC(=O)O)ccc1O,1.6%
CCOC(=O)N1CCC(NC(=O)C2CCCN(c3nc4ccccc4o3)C2)CC1 (centres undefined),84.2%
C=C(C)CC1N(c2cccc(OC)c2)C(=O)C2C(C(=O)O)C3C=CC21O3 (centres undefined),7.1%
CCOC(=O)N1CCC(Nc2nc3ccccc3n3cnnc23)CC1,4.2%
Cc1cc(C)n(-c2cc(-n3nc(C)cc3C)ncn2)n1,3.1%
CCN(CC)C(=O)C1CCCc2c1[nH]c1ccc(Cl)cc21 (centres undefined),3.98µM*[single pt active]
O=C(O)C1Nc2c(C(=O)N3CCOCC3)cccc2C2C=CCC12 (centres undefined),21.1%
CCOC(=O)Nc1ccc(C(=O)Oc2ccccc2)c(O)c1,-6.3%
CC(C)(C)c1ccc(C(=O)Nc2cnccn2)cc1,1.2%
C1=Nc2c(Nc3ccccc3)ncnc2Oc2ccccc21,15.7%
COc1ccc(CC(=O)c2cc(OC)c(OC)cc2CC(=O)O)cc1OC,11.9%
CC(C)(C)Cc1nnc(NS(=O)(=O)Cc2ccccc2)s1,1.2%
Cc1ccnc(NC(=O)c2cc(S(=O)(=O)N3CCCCC3)ccc2Cl)c1,36.5%
CC(=O)c1ccc(-n2nncc2C(C)(C)C)cc1,6.7%
CC1(C)CC(=O)c2cnc(NC(=O)Cc3ccc(Cl)cc3)nc2C1,18.2%
Nc1nc2n(n1)C1(CCCCC1)C1=C(CCCC1)N2,4.7%
CCn1c(SCC(=O)Nc2nc(-c3ccccc3)cs2)nnc1-c1ccccc1,-5.0%
COc1ccc(C2SCCN2S(=O)(=O)c2ccccc2)cc1OC (centres undefined),26.5%
CCn1c(C)c(C(C)=O)c(N2CCN(C(=O)c3ccco3)CC2)nc1=S,-0.7%
C[N+]1(CCC(=O)c2ccco2)CC2CCC(CC2)C1 (centres undefined),-6.2%[5.75 µM]
CCOC(=O)c1ccccc1NC(=O)CSc1nnnn1C1CCCCC1,16.3%
Cc1ccc(S(=O)(=O)C2(C(=O)N3CCN(C4CCCCC4)CC3)CC2)cc1,56.7%
NC(=O)C1CCCNC1 (centres undefined),-9.7%
CCC(=O)N1C(C(=O)O)CSC1c1ccc(OC)cc1 (centres undefined),0.0%
O=C1NC(=O)C2(Cc3ccccc3N3CCCC32)C(=O)N1c1ccccc1 (centres undefined),18.2%
C=C(Br)CN(C)CC(=C)Br,-0.6%[5.75 µM]
CCN1CCN(CCNC(=O)C2CCCN(Cc3nc(-c4cccc(Cl)c4)oc3C)C2)CC1 (centres undefined),81.5%
CCOC(=O)C(NC(C)=O)(N1CCc2ccccc2C1)C(F)(F)F (centres undefined),26.2%
COC(=O)C1=C(C)NC(C)=C(C(=O)OC)C1c1ccccc1OCc1c(C)no[n+]1[O-],54.2%
CN(C)Cc1ccccc1-c1cc(NCc2cccs2)ncn1,-7.8%
COc1ccc(S(=O)(=O)Nc2ccc(C(F)(F)F)cc2)cc1OC,-5.0%
COc1ccc(S(=O)(=O)Nc2ccccc2SC)cc1C,-17.7%
COC(=O)[C@@]1(Cc2ccc(F)cc2)[C@H]2c3cc(C(=O)N4CCCC4)n(Cc4ccc(C(F)(F)F)nc4)c3C[C@H]2CN1C(=O)c1ccccc1,141.6%
O=C(c1cc(-c2ccccc2)nc2ccccc12)N1CCN(c2ccccn2)CC1,86.3%
O=C(NCCn1ccc2ccccc21)c1ccc(S(=O)(=O)N2CCOCC2)cc1,25.3%
CCOc1ccc(N(CC(=O)OC)S(=O)(=O)c2ccc(OC)c(OC)c2)cc1,80.4%
O=C(c1ccco1)N1CCC2(CCN(Cc3ccncc3)CC2)CC1,37.2%
N#Cc1c(SCC(N)=O)nc(-c2ccccc2)c2c1CCCC2,31.4%
O=C(Nc1ccc2c(c1)OCO2)c1cccc(F)c1,-3.5%
O=C(C1CC1)N1CCc2cc(Br)cc(S(=O)(=O)N3CCCCCC3)c21,39.3%
COc1ccc(-n2c(Cn3c(=O)sc4ccccc43)nnc2SCC(=O)N2CCCC2)cc1,107.2%
COC(=O)[C@@]1(Cc2ccc(OC)cc2)[C@H]2c3cc(C(=O)N(C)C)n(CCc4c[nH]c5ccc(O)cc45)c3C[C@H]2CN1C(=O)c1ccccc1,118.2%
O=C1C2CCCN2C(c2ccccc2)N1c1ccccn1 (centres undefined),-10.3%
Cc1cc(C)c(C#N)c(Nc2ccc3c(c2)OCCO3)n1,-2.0%
Cc1cc2c(=O)n(Cc3ccco3)c(SCC(=O)c3ccc(Cl)s3)nc2s1,2.2%
COc1cc(Br)cc2cc(C(=O)N3CCN(C(=O)c4ccco4)CC3)c(=O)oc12,21.4%

(next part)
compound,AmpC inh no det
O=C(c1csnn1)N1CCC2(CC1)CCN(c1ccncc1)CC2,1.2%
COc1ccc(-n2c(C)cc(C(=O)CSc3nnc(-c4ccoc4C)n3C)c2C)cc1,52.8%
Cn1c(=O)c2c3c(sc2n2c(SCc4ccc5c(c4)OCO5)nnc12)COC(C)(C)C3,-1.5%
COc1cc2c(C)nc3onc(-c4ccccc4)c3c2cc1OC,103.6%
CC1CCc2nn(CC(=O)NCc3ccc4c(c3)OCO4)cc2C1 (centres undefined),10.0%
N#CCCN(CC(=O)O)S(=O)(=O)c1ccccc1,-5.7%
Cc1nc2cnc(N3CCN(C)CC3)nc2n(Cc2ccc(F)cc2)c1=O,35.4%
O=C(Nc1ccc(Nc2ccccc2)cc1)N1CCOCC1,-8.7%
CC1(c2ccc(OC(F)F)cc2)NC(=O)N(CC(=O)NC2CCCCC2)C1=O (centres undefined),31.8%
COC(=O)C1C2C=CC3(CN(C(C)c4ccc(OC)cc4)C(=O)C13)O2 (centres undefined),10.4%

Shown with each value named: part of the list above.
N#CCCN(CC(=O)O)S(=O)(=O)c1ccccc1
- AmpC inh no det: -5.7%

Cc1nc2cnc(N3CCN(C)CC3)nc2n(Cc2ccc(F)cc2)c1=O
- AmpC inh no det: 35.4%

O=C(Nc1ccc(Nc2ccccc2)cc1)N1CCOCC1
- AmpC inh no det: -8.7%

CC1(c2ccc(OC(F)F)cc2)NC(=O)N(CC(=O)NC2CCCCC2)C1=O (centres undefined)
- AmpC inh no det: 31.8%

(list continues)
compound,AmpC inh no det
COc1ccc(N(CC(=O)N2CCc3ccccc3C2)S(=O)(=O)c2c(C)nn(C)c2C)cc1,147.8%
Cc1ccc(CNC(=O)CNS(=O)(=O)c2cccc3nsnc23)cc1,-20.6%
Cc1cc(NC(=O)c2ccco2)ncc1NC(=O)Cc1ccccc1,8.8%
O=C(c1cccnc1Nc1ccc2c(c1)CCC2)N1CCOCC1,12.9%
CC1(C)CSC(=S)N1S(=O)(=O)c1ccccc1,2.5%
CCc1ccccc1NC1=NCC(=O)N1Cc1ccc(OC)cc1,39.9%
CCOc1ccc(C2N(c3cc(Cl)ccc3OC)C(=O)C3CCCN32)cc1OC (centres undefined),56.0%
CCN(CC)CCNC(=O)CCc1n[nH]c(=O)c2ccccc12,-18.8%
CN(C1CCCCC1)S(=O)(=O)c1ccc(C(=O)O)cc1,-5.1%
CCNS(=O)(=O)c1ccc2nc(NC(=O)c3cccnc3)sc2c1,-5.5%
Nc1c(Cl)c(Cl)nc(C(=O)O)c1Cl,-1.8%
COCC(=O)Nc1nc2n(n1)C(c1ccc(Cl)cc1)CC(c1ccc(OC)cc1)N2 (centres undefined),117.1%
Cc1ccc2oc(=O)c3cnn(CC(=O)NC4CCC(C)CC4)c3c2c1 (centres undefined),-8.7%
N#Cc1cccc(-c2nccc(NCc3cccnc3)n2)c1,5.01µM*

Structures above containing bromine, in the order listed:
compound,AmpC inh no det
CCOC(=O)c1c(C)oc2cc(Br)c(OC)cc12,-1.0%
C=C(Br)CN(C)CC(=C)Br,-0.6%[5.75 µM]
O=C(C1CC1)N1CCc2cc(Br)cc(S(=O)(=O)N3CCCCCC3)c21,39.3%
COc1cc(Br)cc2cc(C(=O)N3CCN(C(=O)c4ccco4)CC3)c(=O)oc12,21.4%
